HNF4A DNA FP: change in binding of human HNF4 alpha to DNA; P41235; HNF4a-FITC DNA binding, fluorescence polarization, 1 h; activity change, % at 10 µM; 360,000 tested, 0.3% active; in the data active means activity change above about 30%, passing the limit was not always enough;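 further: controls were the assay level and a saturating level of protein; the project sought stronger binding though the title names inhibitors; some compounds called inactive have numbers as strong as hits; positive values seem to mean higher polarization but the record does not say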
Target sequence (P41235 whole entry, looked up): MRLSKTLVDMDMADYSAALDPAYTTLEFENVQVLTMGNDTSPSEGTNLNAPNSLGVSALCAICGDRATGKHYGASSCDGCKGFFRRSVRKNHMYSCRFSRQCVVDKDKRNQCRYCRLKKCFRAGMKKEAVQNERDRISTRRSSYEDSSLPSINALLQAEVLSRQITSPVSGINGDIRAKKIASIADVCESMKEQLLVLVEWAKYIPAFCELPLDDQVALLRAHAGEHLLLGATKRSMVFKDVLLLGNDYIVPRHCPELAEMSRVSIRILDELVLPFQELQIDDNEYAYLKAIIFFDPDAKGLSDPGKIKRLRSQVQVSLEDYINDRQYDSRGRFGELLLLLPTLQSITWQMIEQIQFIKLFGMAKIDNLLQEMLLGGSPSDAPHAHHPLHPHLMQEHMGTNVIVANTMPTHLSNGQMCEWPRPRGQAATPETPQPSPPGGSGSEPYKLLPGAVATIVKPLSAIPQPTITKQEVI
ALR H2O2 inh: blocks human ALR sulfhydryl oxidase activity | P55789 | purified ALR, DTT oxidation, H2O2 HRP-luminol luminescence | inhibition, % (concentration not given with the values) | 290,000 tested, 3.8% active | AID 485317;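 active means mean and each replicate at 75% or more; inconclusive means only one of the two met; inactive means neither met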;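 further: stock transfer was 7.5 nL into about 7.5 µL; 0% = neutral wells and 100% = wells with inactivated enzyme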
Target sequence (P55789 whole entry, looked up): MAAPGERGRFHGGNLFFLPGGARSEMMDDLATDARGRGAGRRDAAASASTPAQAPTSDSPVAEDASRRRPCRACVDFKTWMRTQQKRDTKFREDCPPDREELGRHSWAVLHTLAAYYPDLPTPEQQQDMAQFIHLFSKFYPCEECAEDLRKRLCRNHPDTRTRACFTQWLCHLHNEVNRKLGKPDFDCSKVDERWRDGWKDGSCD
LANA-H2B inh: blocks KSHV LANA binding to histone H2A/H2B; inhibition, % (no concentration beside the values); AID 2629; cell-free LANA-H2A/H2B peptide, fluorescence polarization; 320,000 tested, 0.6% active; Q9QR71; in the data active means inhibition mostly above about 10%, no sharp cut-off; inactive means mostly below about 6.7%;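 further: stock transfer was 7.5 nL into about 10 µL; 0% = median of vehicle wells and 100% = median of positive control wells; one replicate is shown; the record names a cut of 25% in any replicate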
Vif A3G: HIV-1 Vif–A3G interaction blockers – biochemical, TR-FRET, GST-Vif 1-94, biotin-A3G peptide, dose response retest, primary screen (AID 1117319) | 260,000 tested, 0.57% active | inhibition, %; hits with a dose series show IC50 in µM | TR-FRET GST-Vif / biotin-A3G peptide binding; higher % means a stronger effect; test concentration not given here; strong numbers were not always called active;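 active means above the screen mean plus three standard deviations and confirmed in dose response; inconclusive means results disagree or hit not tested in dose response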;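 further: Vif residues 1-94 fused to GST binding biotinylated APOBEC3G peptide 110-148; 0% = full assay without inhibitor and 100% = GST in place of GST-Vif; retest series ran down from 100 µM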
Calb FLC: affects C. albicans growth with fluconazole | C. albicans CaCi-2 (fluconazole-resistant clinical isolate) + fluconazole, Alamar Blue growth, 48 h | growth inhibition, % (test concentration not listed) | 300,000 tested, 0.57% active;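 active means most replicates above 75%; inconclusive means exactly half above 75%; inactive means most below 75%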;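 further: all wells also contain fluconazole at 8 µg/ml as a sub-toxic cotreatment; 0% = median of DMSO wells and 100% = median of geldanamycin control wells; wells of about 8 µL received 7.5 nL stock; the first replicate is given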
Beta2AR agonist: human beta-2 adrenergic receptor agonism by FAP; P07550; Am2.2-beta2AR cells, FAP receptor internalization, flow cytometry; reference of the scale not given here; response, % (test concentration not listed); 340,000 tested, 0.43% active;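 active means response above a set limit, near 3 SD of response in nonfluorescent compounds, cut at about 42% in these data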;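 further: stock transfer was 100 nL into about 11 µL; a reference agonist was the positive control; negative values mostly stem from fluorescent compounds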
Target sequence (P07550 whole entry, looked up): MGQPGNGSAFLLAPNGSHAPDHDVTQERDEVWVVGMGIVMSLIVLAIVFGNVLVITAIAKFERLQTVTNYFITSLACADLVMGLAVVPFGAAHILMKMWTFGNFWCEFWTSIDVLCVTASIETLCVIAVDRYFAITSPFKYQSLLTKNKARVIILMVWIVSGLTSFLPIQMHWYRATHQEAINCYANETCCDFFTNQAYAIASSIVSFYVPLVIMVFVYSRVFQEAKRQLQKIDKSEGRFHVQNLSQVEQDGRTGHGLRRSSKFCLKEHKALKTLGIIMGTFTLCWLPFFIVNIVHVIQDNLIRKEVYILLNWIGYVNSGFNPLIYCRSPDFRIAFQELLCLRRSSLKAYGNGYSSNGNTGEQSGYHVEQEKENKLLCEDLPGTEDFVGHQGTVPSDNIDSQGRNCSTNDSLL
RanGTP-Impb inh: inhibitors of RanGTP-importin-beta interaction, primary screen, biochemical, FRET, CFP-Ran, YFP-importin-beta, homogeneous; inhibition, % (no concentration beside the values); 300,000 tested, 1.1% active; cell-free CFP-Ran/YFP-importin-beta FRET ratio;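 active means most replicates above 15%; inconclusive means exactly half above 15%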;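 further: 0% = DMSO wells and 100% = Ran loaded with GDP instead of GTP; wells of about 40 µL received 100 nL stock; the first replicate is given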
An asterisk follows results filed as active; ? = inconclusive; / = no result given.

SMILES	HNF4A DNA FP	ALR H2O2 inh	LANA-H2B inh	Vif A3G	Calb FLC	Beta2AR agonist	RanGTP-Impb inh
COc1ccc(N2C(=O)C3CCCN3C2c2cc(OC)c(OC)c(OC)c2)cc1 (stereo not given)	4.7	-10	-1.0	6%	-3	8	?
Cc1ccc(/C=N/Nc2nncn2N)cc1	1.3	-21	-2.7	0%	11	30	-1.6
Cc1cccc(NC(=S)N/N=C/c2ccc3c(c2)OCO3)c1	5.9	-12	-3.4	6%	-12	7	5.7
Cc1oc2ccc(NS(=O)(=O)c3ccccc3)cc2c1C(=O)Nc1ccccc1	-0.9	-9	-3.0	1%	11	-1	0.3
N#CCC(=O)N/N=C/c1cc(-c2ccccc2)n(-c2ccc(Cl)cc2)c1-c1ccccc1	/	/	1.7	-5%	4	/	-1.3
O=S(=O)(c1cccc(-c2n[nH]c(=S)n2-c2ccc(OC(F)(F)F)cc2)c1)N1CCOCC1	-4.0	67	-1.6	/	/	9	/
O=C(NC(=S)NC1CCCCCCCCCCC1)c1cccnc1	-0.1	-11	-2.0	3%	2	0	1.1
Oc1ccccc1-c1cncn1Cc1ccccc1	-2.1	0	-1.7	-5%	-2	-7	0.5
Cc1ccc(CN2CCN(Cc3cccn3-c3nccs3)CC2CCO)cc1 (stereo not given)	-2.5	3	1.2	-4%	-7	-1	4.3
COc1cccc(C2CC(c3ccccc3OC)n3nc(N)nc3N2)c1 (stereo not given)	1.5	68	3.5	64%	-9	4	2.9
Cc1ccc(NC(=O)COC(=O)c2ccc(OCc3c(C)noc3C)cc2)cc1S(=O)(=O)N1CCOCC1	-4.8	-11	-3.9	19%	-6	4	-3.1
Cc1csc(=O)n1CCC(=O)OCc1nnc(-c2ccc(Cl)cc2)o1	2.6	/	/	0%	/	6	/
COc1cc(OC)cc(C(=O)NCC(=O)Nc2ccc(OC)c(Cl)c2)c1	1.6	-40	-1.6	-8%	3	3	-2.9
NC(=O)CC(NC(=O)Cc1ccc(Br)cc1)c1ccc(NCc2cc(F)ccc2F)c([N+](=O)[O-])c1 (stereo not given)	5.4	0	-2.6	/	-14	4	9.3
O=C(Nc1nccs1)c1ccc(Br)o1	1.9	-2	2.8	14%	10	17	2.8
COc1ccc(/C=C2/C(=O)N(c3nc4ccccc4s3)N=C2CSc2ccc(Cl)cc2)cc1	-46	-3	-5.0	14%	-17	23	1.6
COc1cc(/C=C2\SC(=S)N(CCC(=O)NCCc3ccccc3)C2=O)cc(OC)c1OC	1.7	-2	-1.5	/	5	1	-1.7
O=C(CSc1nc2cc(Cl)ccc2o1)N1CCOCC1	2.4	10	-1.6	4%	10	-6	5.8
C(=C\N1CCCCCC1)/c1nnnn1-c1ccc(-c2ccccc2)cc1	0.4	1	-4.1	5%	0	1	-1.0
CN(C)c1ccc(C2Nc3ccccc3C(=O)N2NS(C)(=O)=O)cc1 (stereo not given)	0.8	65	-1.4	-3%	-5	1	5.9
Clc1ccc2c(c1)-c1nnc(Br)n1-c1ccccc1S2	-3.9	/	3.7	-6%	/	-18	0.5
CN(C(=O)CN1C(=O)NC2(CCc3ccccc32)C1=O)C1CCS(=O)(=O)C1 (stereo not given)	4.0	-1	0.1	-1%	0	-2	3.3
COc1ccc(CCNc2ccc(C)cc2)cc1	1.1	28	5.1	-1%	-10	1	-0.2
COC1=C(N)C(=O)c2nc(C)ccc2C1=O	-14	/	/	18µM*	/	1	/
COc1ccccc1C(=O)COC(=O)CSC(C)C(=O)Nc1cc(C)on1 (stereo not given)	-0.5	-6	-3.6	-7%	1	0	-1.9
Cc1cc(C)cc(-n2ncc3c2CCCC3NC(=O)c2cc(C)[nH]n2)c1 (stereo not given)	2.2	8	0.7	/	19	-8	5.1
C[N+](C)(C)CC=O	1.2	-12	4.1	/	/	-1	/
C=CCn1c(C)cc(C(=O)COC(=O)CCc2cc(OC)c(OC)c(OC)c2)c1C	0.0	4	-3.5	-5%	/	0	/
COc1ccc(-c2cc(C(F)F)nc(-n3nc(C)cc3C)n2)cc1	-4.7	-2	4.2	15%	-3	-10	8.6
CSc1ncc(C(=O)Nc2cccnc2)c(C(F)(F)F)n1	246	-7	5.4	-7%	4	7	-4.0
Cc1ccccc1Nc1nc(N)nc(COC(=O)C2CCCCC2)n1	1.7	?	-3.2	-8%	12	5	-1.1
CCSC1(SCC)N=C(N)C2(C#N)C(c3ccc(F)cc3)C12C#N (stereo not given)	1.7	18	2.5	-5%	18	25	6.9
CC1CC(C)CN(CCOc2ccccc2-c2ccccc2)C1 (stereo not given)	0.6	-57	1.9	-4%	10	8	1.8
O=C(CCCOc1ccccc1)Nc1ccc(Br)cc1	0.9	-6	-0.5	-2%	4	7	-1.6
CCOc1ccc(S(=O)(=O)Nc2ccc(O)c(Sc3ncn[nH]3)c2)cc1	-2.9	99*	-12	-1%	1	1	-2.0
CCOC(=O)C1CCN(C(=O)c2cc3c(-c4ccc(OC)c(OC)c4)nn(C)c3s2)CC1	-6.3	/	-2.6	-4%	-2	2	-2.4
Cc1ccc2c(c1)N(CCC(=O)NCCN1CCOCC1)C(=O)CO2	3.1	-3	-9.8	-5%	-4	3	-2.9
CCOc1cc(CNC2CCCC2)cc(Cl)c1OCc1ccccc1	-0.8	-70	-3.9	-3%	-14	12	4.3
O=C(COC(=O)c1cc(Cl)ccc1O)Nc1cc(C(F)(F)F)ccc1N1CCOCC1	2.5	27	0.5	-7%	/	2	/
Cc1cc(C(=O)C(=O)N(C)C)c(C)n1-c1ccc(Cl)cc1	1.9	-13	-0.8	-10%	-4	-17	-2.6

Overlap with the part before: 2 compounds, followed by the next part.
SMILES	HNF4A DNA FP	ALR H2O2 inh	LANA-H2B inh	Vif A3G	Calb FLC	Beta2AR agonist	RanGTP-Impb inh
O=C(COC(=O)c1cc(Cl)ccc1O)Nc1cc(C(F)(F)F)ccc1N1CCOCC1	2.5	27	0.5	-7%	/	2	/
Cc1cc(C(=O)C(=O)N(C)C)c(C)n1-c1ccc(Cl)cc1	1.9	-13	-0.8	-10%	-4	-17	-2.6
CC(C)COc1cccc(-c2cc(C(=O)Nc3ccon3)c3ccccc3n2)c1	2.0	/	0.4	/	7	31	0.1
COC(=O)C1=C(O)/C(=C\c2ccc(CNS(=O)(=O)c3ccccc3)o2)N=C1C	-3.0	-6	2.1	/	38	-2	4.6
CN1C(=O)NC2(O)C(=O)c3ccccc3C12O (stereo not given)	0.6	14	-234	?	2	3	-2.3
Cc1cccc(NC(=O)C(=O)NCCc2c[nH]c3ccccc23)c1C	-1.1	-15	-5.2	-4%	-8	2	4.2
CC(=O)Nc1cccc(NC(=O)Cc2ccc3ccccc3c2)c1	0.2	-43	-3.2	-1%	27	-7	3.3
O=C(NC1CCCCC1)C1CCC(=O)N(C2CC2)C1 (stereo not given)	0.4	-1	-6.2	-4%	-4	-3	-1.8
O=C(Cc1ccccc1)Nc1ccccc1C(=O)N1CCN(c2ccccc2)CC1	5.7	61	-2.7	/	7	1	3.4
CC(=O)N(CCC1(c2ccc(C)cc2)CCOC(C(C)C)C1)Cc1ccco1 (stereo not given)	1.4	-6	2.0	/	-5	2	-1.3
CCC(Cc1ccccc1)NC(=O)CCc1ccccc1 (stereo not given)	3.8	-4	2.1	/	3	1	-2.1
O=C(CN1CCN(C(=O)N2CCCCC2)CC1)Nc1ccc(F)cc1	-0.2	-3	-1.2	3%	2	-7	-2.0
COC(=O)[C@H](Cc1ccccc1)NC(=O)O[C@@H]1C(=O)c2cc(OC)ccc2O[C@H]1c1ccc(OC)c(Br)c1	/	-4	0.7	/	-4	/	4.5
O=C(Cn1ccc(C(F)(F)F)n1)N/N=C/c1ccc2c(c1)OCO2	3.1	-2	0.5	/	3	-9	-0.6
COCC(=O)NCCc1ccc(S(N)(=O)=O)cc1	-5.0	-6	1.5	4%	5	6	0.4
CCn1c(SCC(=O)c2c(N)n(C3CC3)c(=O)[nH]c2=O)nnc1-c1ccccc1OC	-1.3	50	3.5	/	/	-3	/
CCOC(=O)c1c(NC(=O)COc2ccccc2C#N)sc2c1CC(C)(C)NC2(C)C	4.3	-15	-2.1	-50%	-4	5	0.1
CC(=O)c1nnn(-c2ccc([N+](=O)[O-])cc2C)c1C	0.9	-8	3.9	23%	-5	4	1.3
Cc1noc(NS(=O)(=O)c2ccc(NC(=O)C34CC5CC(C3)CC(n3cnc(Cl)n3)(C5)C4)cc2)c1C	-2.7	6	-3.7	11%	-4	74*	4.3
Cc1nc2c(C)cccn2c(=O)c1NC(=O)COc1ccccc1	2.1	/	2.5	/	1	3	1.8
Cc1cc(C)cc(NC(=O)CN2CCN(c3ncccn3)CC2)c1	1.6	-9	-3.1	2%	-21	3	?
O=C(O)C1C2C=CC(O2)C1C(=O)Nc1ccc2c(c1)OCCO2 (stereo not given)	/	-12	5.2	5%	2	/	3.1
CCOC(=O)c1[nH]c2ccc(OC)cc2c1NC(=O)c1ccccc1C(=O)O	5.0	39	-0.3	/	4	-7	-0.1
COCC(=O)N/N=C(\C)CC(=O)Nc1ccccc1C(N)=O	1.4	0	-4.4	-10%	-10	-5	4.3
CCN1C(=O)[C@H]2[C@@H](c3ccc(OC)cc3)N3C(=O)CN(Cc4ccccc4)C(=O)[C@@]3(Cc3ccccc3)[C@H]2C1=O	-0.5	4	6.7	/	5	0	2.1
COc1ccccc1C(=O)COC(=O)/C=C/c1ccccc1	-0.6	1	-4.8	/	-7	0	?
CC(CCN1CCN=C1Nc1ccccc1)c1ccccc1 (stereo not given)	2.3	-2	0.5	/	-2	3	2.4
NC1=NC2(CCCCC2)N(c2cccc(Cl)c2)C(N)=N1	-3.1	-1	2.0	1%	-12	-2	?
CC(=O)N1CCN(S(=O)(=O)c2c(C)n(C)c(=O)n(C)c2=O)CC1	-2.1	-4	3.4	1%	-7	4	5.7
Cn1nc(-c2ccc(S(N)(=O)=O)s2)cc1C(F)(F)F	4.7	-10	1.4	/	2	0	0.4
CC(C(=O)Nc1ccccn1)N1C(=O)c2ccccc2S1(=O)=O (stereo not given)	1.6	11	5.7	/	4	-4	0.9
CCOC(=O)CCCc1ccc(/C(C)=N/NC(N)=S)cc1	1.2	7	-1.1	31%	-12	2	-0.1
COc1cc(/C=N/NC(=O)CNC(=O)c2ccc3c(c2)OCCO3)ccc1O	-0.9	98*	-0.8	3%	-4	-3	5.4
O=S(=O)(NCCC1=CCCCC1)c1ccccc1Br	-4.1	/	/	1%	/	-14	/
O=C(Cc1ccc(Cl)cc1)Oc1cccc2cccnc12	-1.7	-12	13	5%	/	11	/
Cc1nc2ccccc2c(=O)n1/N=C/c1ccccc1O	-3.8	7	-3.1	9%	3	-5	2.7
CCOC(=O)c1ccc(NC(=S)Nc2ccccc2N)cc1	/	-10	-2.6	/	5	/	-3.4
Cc1cc(NC(=O)C(C)SCC(=O)N(C)CC(=O)Nc2ccccc2C(F)(F)F)no1 (stereo not given)	2.5	/	/	-2%	/	-8	/
COC(=O)C[C@H]1c2cc(C(F)(F)F)ccc2S(=O)(=O)N1Cc1ccccc1	1.8	-13	4.5	/	-2	-1	-2.8
COc1cccc(/C=N/NC(=O)CCCC(=O)Nc2ccc(Br)cc2)c1	-3.5	/	/	/	-7	-4	1.6
O=C(c1cc(-c2ccco2)nn1-c1cccc(Cl)c1)N1CCCCC1	-3.0	7	4.3	>61µM*	3	4	1.6
O=C1NC2(CCCC2)C(=O)N1CC(=O)N(Cc1ccccc1)c1ccccc1	2.5	8	-1.0	3%	-2	-5	1.9
CC(C)(C)C(=O)N(Cc1ccc(Cl)cc1)Cc1cccnc1	-0.2	-5	2.5	-2%	-1	-7	-4.0
c1ccc2c(c1)oc1c(Nc3ccc4c(c3)OCO4)ncnc12	3.1	-8	0.6	10%	1	11	1.0

High-throughput results deposited in PubChem by several laboratories.
